# CtBP-E1A blk – CtBP/E1A binding inhibition. activity change, % (concentration not given with the values). AlphaScreen GST-E1A/His-CtBP binding, 1536-well; hits give low values; control for the full effect not named in the record. 340,000 compounds, 0.49% hits. AID 651724; in the data active means activity change below about -65%; inconclusive means about -30% to -65%; inactive means above about -30%; further: on the % scale 0 is the no-effect control and ±100 the full control effect
#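 Protein mix (5X: 125 nM each GST-E1A, His-CtBP) was incubated with pinned compound 2 h at 37 deg C in dark, in 50 mM Tris pH 8.0 buffer with 300 mM NaCl. Glutathione donor and nickel acceptor beads followed; AlphaScreen signal read after 1 h.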
# Six1-Eya2 blk – Six1/Eya2 interaction inhibition; Q15475+O00167; AlphaScreen GST-Six1/His-Eya2 binding, biochemical; hits give low values; control for the full effect not named in the record; activity change, % (test concentration not listed); 360,000 compounds, 0.56% hits; AID 651725; in the data active = activity change below about -65%; inconclusive = about -30% to -65%; inactive = above about -30%; further: on the % scale 0 is the no-effect control and ±100 the full control effect
# Target sequence (O00167 whole entry, looked up): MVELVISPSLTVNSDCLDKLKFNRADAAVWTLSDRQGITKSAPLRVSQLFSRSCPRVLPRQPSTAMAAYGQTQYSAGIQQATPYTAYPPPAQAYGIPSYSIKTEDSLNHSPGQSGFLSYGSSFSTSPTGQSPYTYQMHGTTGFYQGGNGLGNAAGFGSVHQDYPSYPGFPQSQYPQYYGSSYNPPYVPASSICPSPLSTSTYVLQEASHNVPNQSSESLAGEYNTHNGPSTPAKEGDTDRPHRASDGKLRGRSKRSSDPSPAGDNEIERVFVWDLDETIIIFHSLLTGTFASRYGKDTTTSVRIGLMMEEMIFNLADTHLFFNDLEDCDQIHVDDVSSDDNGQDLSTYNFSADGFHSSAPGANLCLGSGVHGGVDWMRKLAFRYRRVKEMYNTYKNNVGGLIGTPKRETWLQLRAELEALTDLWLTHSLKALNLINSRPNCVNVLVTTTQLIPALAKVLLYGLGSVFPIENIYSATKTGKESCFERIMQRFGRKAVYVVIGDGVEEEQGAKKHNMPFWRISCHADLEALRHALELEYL
# Target sequence (Q15475 whole entry, looked up): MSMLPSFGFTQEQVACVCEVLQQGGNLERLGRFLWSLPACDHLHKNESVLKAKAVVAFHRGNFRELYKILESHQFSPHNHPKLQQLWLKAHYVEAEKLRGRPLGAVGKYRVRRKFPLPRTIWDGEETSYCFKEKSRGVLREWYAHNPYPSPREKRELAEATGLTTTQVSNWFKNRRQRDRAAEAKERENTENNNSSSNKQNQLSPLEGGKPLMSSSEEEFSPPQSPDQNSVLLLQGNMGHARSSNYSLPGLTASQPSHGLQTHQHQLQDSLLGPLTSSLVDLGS
#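 Homogeneous AlphaScreen proximity assay pairing GST-Six1 with His-tagged Eya2 (added as 5X mix: 250 nM and 500 nM) in 50 mM Tris pH 8.0, 300 mM NaCl, 1 mM TCEP. Glutathione donor and nickel acceptor beads; 1 h, 37 °C, dark.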
# gsp ag – gsp mutant agonism. gsp mutant cells, cAMP HTRF, 30 min; control for the full effect not named in the record. Potency, µM (series often up to 76.9 µM), inactives show at the top dose activation (cAMP increase), usual class: activators. 340,000 compounds, 0.13% hits; active = well fitted activation curve with a large enough effect; inconclusive = small, poorly fitted or top-dose-only effect, or another doubt; inactive = no such curve, though single readings can be large or run the other way; cell line not stated here;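 further: phosphodiesterase inhibitor Ro 20-1724 added with compounds to block cAMP breakdown; potency means the concentration at half of the fitted maximal effect; nearly all actives have a fitted effect of over 60% in size; about a fifth of the inactives were tested at one dose only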
#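 Cells in DMEM/10% FBS with G418 were pretreated with compounds in DMSO plus […] (300 uM stock) for 30 min at 37C. cAMP was measured by HTRF (cAMP-d2 plus anti-cAMP antibody-K) after 30 min at room temperature.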
# gsp antag – antagonists of gsp mutant (McCune-Albright syndrome). gsp-mutant cells, cAMP HTRF, 30 min; control for the full effect not named in the record. Potency, µM (series often up to 76.9 µM), for the others: at the top dose activity change, negative = inhibition, usual class: inhibitors. 340,000 compounds, 0.4% hits. AID 624288; active = falling curve of any shape with a large fitted effect; inconclusive = falling curve, mostly with a smaller effect; inactive = flat or rising curve; cell line not stated here;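 further: intracellular cAMP measured with PDE inhibitor Ro 20-1724 present during compound exposure; potency means the concentration at half of the fitted maximal effect; on the % scale 0 is the no-effect control and ±100 the full control effect; nearly all actives have a fitted effect of over 65% in size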
#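 Measurement of cellular cAMP by homogeneous time-resolved fluorescence following a 30 min compound exposure at 37C. The PDE inhibitor […] was present throughout; the assay buffer was DPBS with 0.05% BSA and 0.005% Tween 20.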
# D2 potentiator – positive allosteric modulators of human D2 dopamine receptor; P14416; DiscoveRx D2 beta-arrestin cells, luminescence, 90 min; 100% = 57 uM dopamine signal; potentiation, % (concentration not given with the values); 360,000 compounds, 0.23% hits; active = potentiation of 50% or more; inconclusive = 30% to 50%; inactive = 30% or less;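 further: tested on top of an EC20 dose of dopamine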
#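 D2 cells co-treated with compound plus 50 nM dopamine (EC20) for 90 min at 37 deg C to detect potentiation. Beta-arrestin recruitment was read as enzyme-fragment luminescence after 1 h at ambient temperature. Full response was set by 57 uM dopamine.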
# D2 ag – human D2 receptor agonism in beta-arrestin assay; P14416; activation, % (test concentration not listed); 360,000 compounds, 0.084% hits; AID 624465; DiscoveRx PathHunter D2 beta-arrestin, luminescence, 90 min; 100% = 57 uM dopamine signal; in the data active = activation above about 40%; inconclusive = about 15% to 40%; inactive = below about 15%; further: compound concentration not given in the record; the text of the record calls up to 30% inactive
#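 DiscoveRx PathHunter D2 beta-arrestin cells (2,100/well) attached overnight, then compound-stimulated 90 min at 37 C in HBSS/10 mM HEPES/0.1% Tween-20 buffer; beta-galactosidase complementation read by luminescence after 1 h at ambient temperature. Dopamine 57 uM final (EC100) as control.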
# The depositor's hits bear a star; ? = inconclusive; . = not tested or not shown; [ ] = another dose, or the depositor's remark.
# Order of values: gsp ag	D2 ag	D2 potentiator	gsp antag	Six1-Eya2 blk	CtBP-E1A blk
> Cc1ccc(S(=O)(=O)N2C[C@@H]3[C@H]4CC[C@H](C4)[C@@H]3[C@@H](C)[C@@H]2C2CCCCC2=O)cc1 (stereo partly drawn)
→ .	0.5	.	-8.1%	-5.1	-3.9
> O=C(CCc1ccccc1)c1c(O)cc(O)cc1O
→ .	2.9	-11.6	-16.0%	-2.7	5.1
> CC1C(=O)N(Cc2ccc(F)cc2)c2ccccc2N1C(=O)c1c(F)cccc1F (stereo not drawn)
→ -1.8%	6.2	9.1	?	-1.5	0.7
> Cc1cccc(C(=O)N[C@H](C(=O)Nc2nc3ccccc3[nH]2)C(C)C)c1
→ 19.1%	-4.1	-14.6	25.3%	6.1	9.0
> Cc1nc(COc2ccc(C(=O)NCc3ccccc3CN3CCCCC3)cc2)cs1
→ -24.9%	-3.3	-4.8	3.5%	1.1	-3.8
> CCOc1ccc(CCNC(=O)CN2CCN(Cc3ccccc3F)C2=O)cc1OCC
→ 0.0%	-2.1	5.0	-8.0%	2.1	-3.0
> O=S(=O)(CCN1CCOCC1)c1ccc(Oc2ccc(S(=O)(=O)CCN3CCOCC3)cc2)cc1
→ -0.6%[15.4 µM]	-0.5	-3.0	4.8%	-16.5	5.5
> CCOC(=O)c1cc(CC)sc1NC(=O)C1CC(=O)NN1Cc1ccccc1 (stereo not drawn)
→ 2.9%[15.4 µM]	-5.0	-11.7	?	-21.1	-7.9
> Cc1ccc(C)c(N2CCN(C(=O)CCc3nc(-c4ccccc4F)no3)CC2)c1
→ .	-0.1	-3.7	?	0.7	1.9
> CCCCCC(=O)N1C[C@H](n2cc(-c3ccc(F)cc3)nn2)[C@@H](O)C[C@@H]1c1ccc(Cl)cc1
→ -46.0%[inhibitor]	-9.7	-0.1	.	-9.1	4.5
> CCn1c(NC(C)=O)nc2ccccc21
→ -1.8%	-0.6	2.1	14.7%	-0.3	4.1
> O=C(O)/C=C/C(=O)c1c(-c2ccccc2)[nH]c2ccccc12
→ -27.6%	-5.1	-4.6	-6.8%	-12.7	-1.4
> Cc1cccn2c(=O)c3cc(C(=O)NCc4ccco4)c(=N)n(CCOCCO)c3nc12
→ ?	-1.0	-20.2	0.5%	?	?
> Nc1ccc(Cl)c(S(=O)(=O)Nc2ccccc2Cl)c1
→ -1.2%[15.4 µM]	-0.6	3.9	-65.4%	5.8	-4.7
> Cc1ccc(S(=O)(=O)NC(C)C(c2cccs2)N2CCOCC2)cc1 (stereo not drawn)
→ -36.2%[inhibitor]	-2.4	0.5	8.5%	2.5	6.9
> CCC(=O)Nc1ccc(C(=O)N/N=C/c2cccnc2)cc1
→ 3.6%	1.9	-9.6	5.8%	1.4	1.1
> O=C(CCC(=O)OCCCC(F)(F)C(F)(F)F)NC1CCCCC1
→ 0.9%	-2.6	-4.9	-7.5%	7.2	6.8
> CCCC(=O)Nc1nnc(S(=O)(=O)N(CC)c2ccccc2)s1
→ ?	-3.5	-2.8	-26.7%	6.3	12.5
> Cc1cc(Cl)ccc1OCCCC(=O)N1CCCCC1
→ 0.0%	-3.0	-9.9	-3.0%	8.0	7.9
> CCc1ccc(S(=O)(=O)Nc2c(NC3CCCCC3)c3ccccc3oc2=O)cc1
→ 17.5%	-0.6	-10.8	?	-4.7	3.6
> Cc1ccc(-n2c(C)cc(C(=O)CN3C(=O)C(=O)N(C4CCCC4)C3=O)c2C)cc1
→ 12.3%[15.4 µM]	-1.4	-5.7	-7.5%	-8.0	-12.2
> COc1ccc(-c2nc3nc(N)nn3cc2C)cc1F
→ -4.9%[15.4 µM]	-3.9	-4.8	3.7%	-9.5	-6.5
> C/C(N)=C(/C#N)C(=O)COC(=O)CCS(=O)(=O)c1ccccc1
→ -1.2%	-1.6	6.6	19.6%	-4.2	-0.3
> CC(C)COc1ccc(C(=O)OCCN2CCOCC2)cc1
→ -14.7%	-1.6	-0.9	17.0%	-12.7	8.0
> C[C@@]12C(=O)N(Cc3ccc(-c4ccccc4)cc3)CC(=O)N1[C@H](/C=C/c1ccccc1)[C@@H]1C(=O)N(c3ccccc3)C(=O)[C@@H]12
→ 3.4%	-2.6	-5.5	2.3%	-8.2	-7.8
> N#Cc1ccccc1S(=O)(=O)N1CCN(C(=O)CCNS(=O)(=O)c2ccc(Cl)cc2)CC1
→ -15.0%	3.5	4.3	-13.3%	2.1	0.9
> Cc1noc(C)c1CSCC(=O)Nc1cc(C(F)(F)F)ccc1N1CCOCC1
→ -0.3%	1.6	-10.3	-17.3%	14.3	-16.9
> CCc1ccc(/C=N/NC(=O)c2cc(C3CC3)nc3ccccc23)s1
→ -7.9%	-0.1	0.1	21.6%	-0.1	-2.3
> CC(=O)c1ccc(NC(=O)NC2CCCc3ccccc32)cc1 (stereo not drawn)
→ 18.7%	-4.0	-23.7	-25.9%	-7.0	-14.2
> O=C(c1cccc(F)c1)N1CCC(N2CCOCC2)CC1
→ -8.5%	2.5	-6.6	8.1%	5.3	11.1
> O=C(O)CN(c1ccccn1)S(=O)(=O)c1ccc(Cl)cc1
→ 3.4%	-3.5	-4.8	12.1%	6.5	1.8
> COc1ccc(-c2cnnn2-c2ccc(NC(=O)c3ccc(S(=O)(=O)N4CCCCC4)cc3)cc2)cc1
→ -23.9%	-6.7	19.6	-15.0%	-6.1	-3.4
> Cc1ncc(CO)c(/C=N/N=C/c2ccccc2O)c1O
→ -1.4%	1.6	-10.0	2.2%	3.8	-7.3
> CCCc1cc(=O)[nH]c(SCC(=O)Nc2ccc([N+](=O)[O-])cc2C#N)n1
→ 14.9%	-1.5	-7.2	-6.0%	-0.9	-2.4
> O=C(O)CSc1nnc(-c2cccnc2)n1Cc1ccccc1
→ -15.6%	-0.9	-5.8	11.0%	0.6	-17.9
> O=C(CN1CCC(C(=O)c2ccc3c(c2)OCCO3)CC1)NCc1ccc(F)cc1
→ -18.2%	-3.5	-7.6	-5.0%	5.6	-0.3
> Cc1cc(N)n(-c2ccc(S(=O)(=O)N3CCOCC3)cc2[N+](=O)[O-])n1
→ 23.7%[15.4 µM]	-0.2	-3.5	9.2%	9.1	0.9
> CN(C)c1cc(C(F)(F)F)nc(-c2ccccn2)n1
→ -52.6%[inhibitor]	-1.8	-10.0	4.9%	2.8	0.9
> NC(=O)Nc1ccc(C(=O)OCC(=O)NCc2ccc3c(c2)OCO3)cc1
→ -16.2%	3.7	-7.2	-4.4%	2.5	.
> OC(COc1ccccc1)CN1CCCCC1 (stereo not drawn)
→ -7.8%	-2.1	-19.9	15.2%	-13.1	7.2
> O=C(COC(=O)C1CCCCC1C(=O)N1CCc2ccccc21)NCc1ccco1 (stereo not drawn)
→ -31.1%[inhibitor]	-4.1	-11.7	?	-14.2	-3.4
> O=C(COc1ncnc2ccccc12)Nc1cc([N+](=O)[O-])ccc1F
→ 7.0%[15.4 µM]	0.5	-1.9	3.0%	-1.1	5.0
> COc1cccc(-c2sc3ccc(OC)cc3c2C#CC2(O)CCCCC2)c1
→ .	0.9	-7.7	-5.2%	0.6	-14.2
> COc1ccc(/C=C/C(=O)c2cc3cccc(OC)c3oc2=O)cc1
→ 4.8%[15.4 µM]	-2.0	0.6	-20.4%	-4.6	0.0
> O=C(COc1ccc2ccccc2c1)Nc1ccccc1C(=O)O
→ 0.8%	2.5	12.1	?	-2.3	.
> CC(=O)Cc1nsc(NC(=O)c2cccs2)n1
→ 6.7%	-3.1	-7.9	-2.2%	0.2	9.9
> O=C(N/N=C/c1ccc2c(c1)OCO2)C1CC1
→ 5.0%	-0.3	-11.0	14.2%	1.8	-24.2
> CC(C)CCNC(=O)CCc1nnc(COc2ccccc2)o1
→ -22.8%[15.4 µM]	-2.3	-10.1	13.6%	-3.5	0.0
> CN(C)S(=O)(=O)c1ccc(NC(=O)CSc2nc3ccccc3n2-c2ccccc2)cc1
→ -18.1%[15.4 µM]	1.4	-3.7	-33.9%	-12.7	-6.5
> Cc1ccc(NC(=O)CSc2sc3c(O)cc(=O)[nH]c3c2C#N)c(F)c1
→ -26.5%	-9.4	-16.7	-19.1%	-1.5	-10.9

# Results in D2 potentiator (two entries from above):
compound | D2 potentiator
C/C(N)=C(/C#N)C(=O)COC(=O)CCS(=O)(=O)c1ccccc1 | 6.6
CC(C)COc1ccc(C(=O)OCCN2CCOCC2)cc1 | -0.9

# (list continues)
# Order of values: gsp ag	D2 ag	D2 potentiator	gsp antag	Six1-Eya2 blk	CtBP-E1A blk
> O=C(O)CC(NC(=O)C(c1ccccc1)c1ccccc1)c1ccc(F)cc1 (stereo not drawn)
→ -22.3%	-4.1	0.5	-23.5%	0.5	8.0
> CC1(C)CC(=O)C2=C(C1)OC1OC(=O)CC21C (stereo not drawn)
→ 8.8%[15.4 µM]	-1.3	-5.9	8.2%	11.8	-7.3
> Cc1cc(=O)[nH]c(SCC(=O)NC(c2ccccc2)c2ccccc2)n1
→ 16.5%[15.4 µM]	-5.2	6.7	-7.6%	-21.9	-5.4
> Cc1nn(CC(=O)N2CCOCC2)c(=O)c2ccccc12
→ -5.6%	0.7	10.2	6.1%	6.3	6.5
> O=c1[nH]c2ccccc2nc1/C=C/c1ccccc1
→ -12.9%	0.0	0.5	-8.3%	4.7	-15.0
> CCCCCCN1CCN(C2CN(Cc3ccc([N+](=O)[O-])cc3)S(=O)(=O)C2)CC1 (stereo not drawn)
→ -5.9%	2.4	.	.	-9.6	1.4
> COc1cccc(-c2nnc(SCC(=O)Nc3cc(C)on3)n2C)c1
→ 4.7%	0.1	7.7	-2.0%	3.7	4.0
> Cc1cccc(C2c3[nH]c4ccccc4c3CCN2C(=O)CN2CCOC2=O)n1 (stereo not drawn)
→ -23.7%	-0.1	-0.4	3.4%	-18.5	-11.4
> O=S(=O)(Nc1ccc(Oc2ncccn2)c(Cl)c1)c1ccc(F)cc1
→ 4.2%[15.4 µM]	-1.1	-6.0	6.0%	3.8	6.2
> O=C(Cc1ccccc1)NNC(=O)Nc1cccc(Cl)c1
→ 0.1%	1.4	-11.3	-9.3%	0.5	0.7
> COc1cc(-c2nc(C)c(C(C)=O)n2O)ccc1OCC(=O)Nc1ccc(F)cc1
→ -38.6%[inhibitor]	-18.2	-7.5	-32.2%	2.3	-3.3
> COc1ccccc1N1CCN(C(=O)C2CCCCN2S(=O)(=O)c2ccc(C)cc2)CC1 (stereo not drawn)
→ -23.7%	-2.2	-16.0	-16.1%	-1.3	-8.5
> CCc1sc(NC(=O)CN2CCC(C(N)=O)CC2)nc1-c1ccccc1
→ -15.0%	2.9	-1.3	-4.6%	1.2	.
> CCn1c(Cc2ccccc2)nnc1SCC(=O)Nc1ccc2c(c1)OCO2
→ 5.8%	1.8	11.8	-4.1%	-7.1	1.0
